PABP FP inh: PABP poly(A) RNA binding inhibitors, primary screen, biochemical, fluorescence polarization, uHTS. inhibition, % at 35 µM. actives 1% (n = 290,000). AID 2014, 2009;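 active means 50% or more with normal probe brightness, or confirmed in later tests; inconclusive means above 50% with abnormal brightness, or retests that disagree; inactive means below 50% or failed in later tests; about a fifth of its hits are not listed in these tables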;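 further: calls also rest on retests at 20 µM and on dose response follow-up; controls were probe without protein and protein plus probe with vehicle; some compounds called inactive have numbers as strong as hits; many hits fall short of the cut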
MT1-MMP act inh: blockers of MT1-MMP proenzyme processing, primary screen, HT1080 RFP-PRO-GFP cells, GFP/RFP fluorescence | Matrix metalloproteinase-14 (Homo sapiens), P50281 | GFP/RFP ratio fluorescence, overnight; percent of plate control window, DMSO zero | GFP/RFP ratio change, % at 20 µM | actives 0.061% (n = 360,000);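 active means GFP/RFP ratio change of at least 30% with cell ATP level not reduced by more than half and red fluorescence within 50% of control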; further: strong numbers were not always called active
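system = RFP-PRO-GFP reporter HT1080 cells | dosing = 20 µM single dose, 1% DMSO | timing = overnight cell settling, then overnight compound exposure, 37 °C, 5% CO2 | read-out basis = GFP/RFP fluorescence ratio | controls = DMSO and RFP-L50D-GFP cell wells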
Env fusion inh: inhibitors of HIV-1 Env-driven cell-cell fusion, primary screen, HeLa-JRFL effector, CEM21 target cells, luciferase. inhibition, % at 12.3 µM. actives 1.1% (n = 360,000). AID 651610, 2012;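 active means mean replicate inhibition score of at least 50 and every replicate individually at or above 50; inconclusive means only one of the two criteria met; inactive means mean below 50 and not all replicates reaching 50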;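 further: 0% = plate neutral controls and 100% = maraviroc near 300 nM; one replicate is shown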
Rce1 inh: yeast Rce1p protease inhibitors, primary screen, biochemical, fluorescence, cell-free homogeneous | AID 2563, 2010 | calls only | actives 0.27% (n = 290,000) | yeast membranes, quenched prenylated peptide cleavage fluorescence | CAAX prenyl protease 2 (Saccharomyces cerevisiae (strain ATCC 204508 / S288c)), Q03530;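 active means fall in fluorescence gain of 50% or more versus controls, with final raw signal at or below 3038400; inconclusive means same 50% fall but final raw signal above 3038400; inactive means fall in fluorescence gain under 50%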;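 further: plate controls were neutral control wells for no effect and wells lacking membranes for full effect; tested at 10 µM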
Target sequence (Q03530 whole entry, looked up): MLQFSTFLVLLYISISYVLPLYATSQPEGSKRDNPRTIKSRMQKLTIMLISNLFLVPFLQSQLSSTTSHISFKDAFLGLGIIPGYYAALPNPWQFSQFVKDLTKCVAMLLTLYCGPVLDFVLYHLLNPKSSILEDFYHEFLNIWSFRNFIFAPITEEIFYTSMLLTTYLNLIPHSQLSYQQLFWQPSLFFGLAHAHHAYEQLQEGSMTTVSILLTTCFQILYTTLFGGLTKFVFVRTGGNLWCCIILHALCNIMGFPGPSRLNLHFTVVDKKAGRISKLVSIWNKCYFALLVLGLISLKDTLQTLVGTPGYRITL
UUG fidelity: modulators of yeast start codon fidelity, primary screen, whole organism, S. cerevisiae, single point, plate reader. activity score, % at 18.7 µM. actives 0.13% (n = 350,000). S. cerevisiae UUG-firefly luciferase reporter, luminescence/redox ratio. AID 602363, 2012;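 active means replicate mean at a twofold rise or more, about +100% in these data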;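 further: firefly luciferase made from a UUG start codon reports start codon fidelity; reporter light over untreated wells divided by growth signal over untreated wells; some hits fall short of that in this replicate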
CSC inhib: cancer stem cell viability inhibitors, primary screen, luminescence; cancer stem cell-like cells viability; inhibition, % at 7.5 µM; actives 1.1% (n = 300,000);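 active means mean at 75% or more and at least half the replicates too; inconclusive means mean and replicates disagree; tested in HMLE shEcad cells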;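 further: 0% = median of negative and 100% = median of positive control wells; the first replicate is given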
eIF4H FP inh: human eIF4H binding inhibitors, primary screen, translation initiation inhibitor project, biochemical, uHTS, fluorescence polarization; AID 2012, 2009; Eukaryotic translation initiation factor 4H (Homo sapiens), Q15056; eIF4H fluorescence polarization binding assay; inhibition, % at 35 µM; actives 0.94% (n = 290,000);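 active means 50% or more with normal probe brightness, or confirmed in later tests; inconclusive means above 50% with abnormal brightness, or retests that disagree; inactive means below 50% or failed in later tests; about a fifth of its hits are not listed in these tables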;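 further: calls also rest on retests at 20 µM and on dose response follow-up; 0% = protein and probe with vehicle and 100% = probe without protein; strong numbers were not always called active; many hits fall short of the cut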
eIF4H FP inh retest: second read-out of eIF4H FP inh, no call of its own (marks repeat the call); inhibition, %; compound at 20 µM; confirmation average;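 mean of two retest wells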
PABP FP inh retest: also measured in PABP FP inh; calls as there; inhibition, %; compound at 20 µM; confirmation repeats;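 mean of two retest wells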
MT1-MMP act inh RFP: recorded beside MT1-MMP act inh, whose call it bears; RFP signal change, %; measured here: RFP expression control read;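 0 = vehicle wells; hits needed this value within 50% of zero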
* marks the source's active call; other numbers are inactive results; i = inactive; ? = inconclusive; nt = no result given. Only part of the results is shown; the hit share may differ from the screen's.

SMILES	PABP FP inh	MT1-MMP act inh	MT1-MMP act inh RFP	Env fusion inh	Rce1 inh	UUG fidelity	CSC inhib	eIF4H FP inh	others
CC(C)N1CCc2c(sc(NC(=O)c3ccc(C(=O)c4ccccc4)cc3)c2C(N)=O)C1	-11	-23	-5	-6	i	5	49	-13
Cc1ccc(C)c(S(=O)(=O)N2CCCCC2CCNC(=O)C(=O)NC2CC2)c1 (stereo not drawn)	nt	3	0	2	i	nt	7	nt
c1ccc2sc(NCC3CCCO3)nc2c1 (stereo not drawn)	4	1	1	-1	i	nt	nt	0
O=C(NCc1ccccn1)Nc1cccc(Cl)c1	4	1	0	nt	i	-30	-2	-3
CN1CCC(N(C)C(=O)c2sc3cc(F)ccc3c2Cl)CC1	-15	0	2	2	i	-6	33	1
CCOC(=O)C1(C)CCCN(C(=O)c2cccc(Cl)c2)C1 (stereo not drawn)	nt	1	3	10	nt	-7	nt	nt
NS(=O)(=O)c1ccc(NC(=S)Nc2cc(Cl)c(Cl)cc2Cl)cc1	2	1	6	-10	i	nt	-5	-3
CC(C)CC(C)N1CCC(n2nccc2NC(=O)CCc2ccccc2)CC1 (stereo not drawn)	3	0	4	-13	i	0	6	-4
C=CCn1c(SCC(=O)Nc2cccc3ccccc23)nnc1-c1cnccn1	-7	-1	0	-13	i	-24	9	-10
Cc1ccc(F)cc1NC(=O)C1C2CCC(O2)C1C(=O)O (stereo not drawn)	-13	5	3	-10	i	-11	12	-7
CCC(=O)c1ccc(OCC(=O)OCC(=O)c2c(N)n(C)c(=O)n(C)c2=O)cc1	nt	-3	2	-1	nt	-14	3	nt
COc1ccc(NC(=O)COc2coc(CN3CCc4ccccc4C3)cc2=O)cc1	nt	4	-3	5	i	0	-4	nt

Next part; the last two above are carried over.
SMILES	PABP FP inh	MT1-MMP act inh	MT1-MMP act inh RFP	Env fusion inh	Rce1 inh	UUG fidelity	CSC inhib	eIF4H FP inh	others
CCC(=O)c1ccc(OCC(=O)OCC(=O)c2c(N)n(C)c(=O)n(C)c2=O)cc1	nt	-3	2	-1	nt	-14	3	nt
COc1ccc(NC(=O)COc2coc(CN3CCc4ccccc4C3)cc2=O)cc1	nt	4	-3	5	i	0	-4	nt
CCC(C(=O)NCCc1ccccc1)c1ccccc1 (stereo not drawn)	0	0	1	17	i	-8	-8	-7
COc1cc(OC)c2ccc(=O)oc2c1C(CCN1CCCC(C)C1)c1ccc(N(C)C)cc1 (stereo not drawn)	-8	3	4	-15	i	-12	14	-6
CCOC(=O)C1CCCN(C(=O)/C=C/c2ccc(OC)cc2)C1 (stereo not drawn)	3	-1	5	2	i	nt	-6	11
CCOC(=O)C1=C(CN2CCN(C(=O)c3ccco3)CC2)NC(=O)NC1c1ccccc1 (stereo not drawn)	3	0	4	nt	i	-2	-20	0
O=C(NCc1ccccc1Cl)c1ccc2sc([C@H]3C[C@H](O)[C@@H](CO)O3)nc2c1	nt	2	-6	3	nt	-13	nt	nt
CCN(CC)C(=O)CSc1nnc2nnc3cc(OC)ccc3n12	?	-32	7	10	i	0	10	?
Cc1cnc(CN(C)C(=O)c2ccc3oc(Cc4ccc(Cl)cc4)nc3c2)[nH]1	1	0	-5	0	i	nt	22	-8
CC(C)[C@H](NC(=O)c1ccccc1)C(=O)O	0	4	6	10	i	nt	2	0
CCN1C(=O)[C@H]2[C@@H](c3ccc(C)cc3)N3C(=O)N(c4cccc(Br)c4)C(=O)[C@@]3(Cc3ccccc3)[C@H]2C1=O	nt	-1	-8	33	i	-7	-4	nt
[O-][n+]1ccc(C2CC2)cc1	1	-1	3	-36	i	-46	nt	-9
Cc1cccc(-c2cc3nc(C)cc(=O)n3[nH]2)c1	nt	0	2	-12	nt	-18	nt	nt
CC1CC(C)CN(C(=O)CSc2nnc3ccccn23)C1 (stereo not drawn)	nt	-1	1	-8	nt	-4	4	nt
CC1CC(C)CN(C(=O)CCCNC(=O)c2ccc(Cl)cc2)C1 (stereo not drawn)	-9	-4	-5	5	i	-4	nt	-2
CC(CCc1ccccc1)NC(=O)CCc1cn(C)c2ccccc12 (stereo not drawn)	-5	0	1	27	i	1	-9	-1
O=c1oc2cc(O)ccc2c2ccccc12	6	3	6	nt	i	66	nt	2
COc1ccccc1CN(C)C(=O)c1ccccc1Sc1ccccc1C#N	1	-2	0	18	i	4	22	2
C/C(=N\NC(=S)NC(C)C)c1ccco1	2	0	0	13	i	nt	-17	-1
COc1ccc(NS(=O)(=O)c2nnc(NC(=O)c3ccccc3F)s2)cc1	9	4	5	14	i	-14	3	0
Cc1c(CC(=O)O)c(=O)oc2cc(OCc3nn[nH]n3)ccc12	5	-8	3	nt	?	-16	-10	1
O=C1NN(c2ccccc2)C(=O)/C1=C\c1ccc2c(c1)OCO2	4	-3	0	1	i	-3	-8	0
Cc1n[nH]c(C)c1N=Nc1cc(Cl)ccc1Cl	2	1	-4	-201	i	21	22	-4
CCN(CC)CCC(C)OC(c1ccccc1)c1ccccc1 (stereo not drawn)	2	-11	-6	0	i	-11	14	11
CCCCOC(=O)/C(=C/c1cn(C)c2ccccc12)NC(=O)c1ccc(OC)cc1	16	5	5	-4	i	-12	-6	7
CCCCS(=O)c1snnc1C (stereo not drawn)	6	1	3	2	i	nt	-10	-8
COC(=O)[C@H](CC(C)C)N1Cc2cc(OC)cc(OC)c2-c2ccccc2S1(=O)=O	nt	0	2	-30	nt	-13	nt	nt
O=C(Cc1c(F)cccc1Cl)OCC(=O)c1ccc[nH]1	nt	4	0	-19	nt	nt	-12	nt
CSCCC(C(=O)Nc1c(C)cccc1C)N1CCN(c2ccc(C(F)(F)F)cn2)CC1 (stereo not drawn)	nt	-1	0	-31	nt	-15	nt	nt
CCOc1c(Br)cc(C(=O)N2CCCN(C)CC2)cc1OC	3	2	3	11	i	-2	-6	-8
CC1(CCC(=O)O)C(=O)CCC2C1CCC1(C)C2CCC1(C)O (stereo not drawn)	nt	2	3	1	nt	-8	nt	nt
NNC(=O)c1oc2nc(-c3ccc(Cl)cc3)cc(-c3ccccc3)c2c1N	-5	-54	-5	-9	i	-19	19	1
CCOc1ccc2nc(SCC(=O)Nc3ccc4[nH]c(=O)[nH]c4c3)[nH]c2c1	nt	4	1	-7	i	-15	nt	nt
CCOc1cc(/C=N/Nc2nc(C)cc(=O)[nH]2)ccc1O	7	2	2	-7	i	-18	-6	-7
CN(C)S(=O)(=O)c1ccc2c(c1)nc(CCC(=O)O)n2C	-6	6	6	1	nt	6	nt	-7
CCOC(=O)c1cc(-c2ccc(N3CCOCC3)cc2)nn1-c1ccc(F)cc1F	4	-7	-2	9	i	nt	1	0
O=C(NC(=S)Nc1ccc(O)cc1)c1ccccc1Cl	-3	3	-1	-30	i	-28	9	1
Cc1cc(C)nc(SCC(=O)NNC(=O)c2ccccc2C)n1	-4	6	9	1	i	-14	19	-2
OC(CNCc1ccc2c(c1)OCO2)COc1ccc(F)cc1 (stereo not drawn)	-8	2	-1	1	i	-5	-8	-5
CC(=O)Nc1ccc(-c2csc(Nc3cccc(C)n3)n2)cc1	-2	-2	-6	-295	i	-9	nt	-10
CCOc1ccc(C(=O)CCC(=O)Nc2ccc(C)c(S(=O)(=O)N3CCCCC3)c2)cc1	nt	1	-14	12	nt	-17	nt	nt
COc1ccc(NC(=O)CSCc2ccc([N+](=O)[O-])cc2)cc1OC	-2	0	-4	4	i	-6	-11	2
COc1cccc(/C=N/n2c(=O)[nH]c3ccccc32)c1OC	1	-5	-4	-33	i	1	nt	1
CCC(C)[C@H](NC(=O)[C@@H]1CSC2c3ccccc3C(=O)N21)C(=O)N1CCCCC1 (stereo partly drawn)	-2	-5	0	1	i	-12	-6	-2
O=C(Nc1ccccc1)c1ccccc1OCc1ccc(F)cc1	4	0	-7	-6	i	10	1	10
O=C(O)c1ccc(CSc2nc(-c3ccccc3)cc(C(F)(F)F)n2)cc1	10	0	2	25	i	nt	1	2
Cc1ccc(C(=O)C2=C(O)C(=O)N(CCCn3ccnc3)C2c2ccc(OC(C)C)cc2)o1 (stereo not drawn)	3	-3	5	nt	i	nt	16	0
CCC(=O)NCCc1nc2cc(NC(=O)c3cccs3)ccc2n1C	64	4	3	-12	i	nt	-6	-3	eIF4H FP inh retest=22;PABP FP inh retest=21
COc1ccc(CCCNC(=O)C2(C)Cc3c(-c4cccc(C(N)=O)c4)ccnc3O2)cc1 (stereo not drawn)	nt	0	-8	-13	nt	-6	nt	nt
Cc1cc(C)cc(NC(=O)CCNC(=O)c2ccc([N+](=O)[O-])cc2)c1	-3	2	-1	12	i	-15	-1	-10
O=C(Nc1ccc(F)cc1F)c1csc(-c2ccccc2)n1	0	1	3	-22	i	nt	4	1
C=CCCC(=O)N1C[C@@H](CO)[C@@H](NC)C[C@H]1c1ccccc1Br	nt	1	5	-30	nt	-9	nt	nt
Cc1nn(C(C)C)c(C)c1CN1CCCC(CCC(=O)NCc2ccccc2F)C1 (stereo not drawn)	1	5	6	7	i	nt	-13	-1
COc1ccc(N2C(=O)C(Cl)=C(Nc3c(C)n(C)n(-c4ccccc4)c3=O)C2=O)cc1	-1	4	1	nt	i	-14	nt	-10

In the list so far, these contain fluorine.
SMILES	PABP FP inh	MT1-MMP act inh	MT1-MMP act inh RFP	Env fusion inh	Rce1 inh	UUG fidelity	CSC inhib	eIF4H FP inh	others
CN1CCC(N(C)C(=O)c2sc3cc(F)ccc3c2Cl)CC1	-15	0	2	2	i	-6	33	1
Cc1ccc(F)cc1NC(=O)C1C2CCC(O2)C1C(=O)O (stereo not drawn)	-13	5	3	-10	i	-11	12	-7
COc1ccc(NS(=O)(=O)c2nnc(NC(=O)c3ccccc3F)s2)cc1	9	4	5	14	i	-14	3	0
O=C(Cc1c(F)cccc1Cl)OCC(=O)c1ccc[nH]1	nt	4	0	-19	nt	nt	-12	nt
CSCCC(C(=O)Nc1c(C)cccc1C)N1CCN(c2ccc(C(F)(F)F)cn2)CC1 (stereo not drawn)	nt	-1	0	-31	nt	-15	nt	nt
CCOC(=O)c1cc(-c2ccc(N3CCOCC3)cc2)nn1-c1ccc(F)cc1F	4	-7	-2	9	i	nt	1	0
OC(CNCc1ccc2c(c1)OCO2)COc1ccc(F)cc1 (stereo not drawn)	-8	2	-1	1	i	-5	-8	-5
O=C(Nc1ccccc1)c1ccccc1OCc1ccc(F)cc1	4	0	-7	-6	i	10	1	10
O=C(O)c1ccc(CSc2nc(-c3ccccc3)cc(C(F)(F)F)n2)cc1	10	0	2	25	i	nt	1	2
O=C(Nc1ccc(F)cc1F)c1csc(-c2ccccc2)n1	0	1	3	-22	i	nt	4	1
Cc1nn(C(C)C)c(C)c1CN1CCCC(CCC(=O)NCc2ccccc2F)C1 (stereo not drawn)	1	5	6	7	i	nt	-13	-1

Bioassay records from PubChem.
